KB-V1 cytotox = kills drug-selected multidrug resistant KB-V1 cells; KB-V1 MDR cells viability, CellTiter-Glo, 72 h; Potency, µM (titrated, usually from 46.1 µM), for the others: at the top dose activity change, negative = cytotoxicity, actives largely listed as cytotoxic; 400,000 compounds, 3.4% hits; AID 1347076; note: potency is the fitted concentration of half-maximal effect; % is set by controls: 0 for no effect and ±100 for the full control effect; nearly all actives have a fitted effect of over 60% in size
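Following 72 h at 37 degrees C with compound, KB-V1 cell viability was read by CellTiter-Glo luminescence, medium being phenol-red-free DMEM plus 10% FBS; concentration-response parameters came from normalized, curve-fitted qHTS data.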
DRD3 agonist = D3 dopamine receptor (human) agonism; P35462; D3R DiscoveRx beta-arrestin cells, luminescence, 90 min; max activation, %; 410,000 compounds, 0.58% hits; AID 652048; in the data active = max activation above about 30%; note: 0% is about no effect; mostly tested at two doses, the higher about 12 µM
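Agonist-mode cell screen: cells plated at 1500/well and incubated overnight at 37 °C, then exposed to library compounds for 90 min at 37 °C. Detection reagent was added for 30–60 min at room temperature, and luminescence was read.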
GLP1R ag = GLP-1 receptor (human) agonism; P43220; AID 624172; HEK293 GLP-1R CRE-luciferase, luminescence, 4-6 h; cells express a hypersensitive GLP-1R form; 380,000 compounds, 0.007% hits; Potency, µM (series often up to 45.6 µM), inactives show at the highest dose activation, most hits filed as activators; note: potency is the fitted concentration of half-maximal effect; % of control where 0% means no effect
Target sequence (P43220 whole entry, looked up): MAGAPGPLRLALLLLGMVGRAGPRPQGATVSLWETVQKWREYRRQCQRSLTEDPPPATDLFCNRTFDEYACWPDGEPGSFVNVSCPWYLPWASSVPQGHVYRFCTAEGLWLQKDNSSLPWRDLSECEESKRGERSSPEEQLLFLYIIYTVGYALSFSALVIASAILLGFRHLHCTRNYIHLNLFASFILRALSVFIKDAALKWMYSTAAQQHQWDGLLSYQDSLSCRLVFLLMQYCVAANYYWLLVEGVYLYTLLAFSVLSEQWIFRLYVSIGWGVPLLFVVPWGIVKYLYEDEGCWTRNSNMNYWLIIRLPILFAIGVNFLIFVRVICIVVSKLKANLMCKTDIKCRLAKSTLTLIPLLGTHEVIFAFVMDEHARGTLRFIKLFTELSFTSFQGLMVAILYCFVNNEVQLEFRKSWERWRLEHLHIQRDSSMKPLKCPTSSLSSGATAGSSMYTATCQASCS
KB-3-1 cytotox = kills parental KB-3-1 adenocarcinoma cells. KB-3-1 viability, CellTiter-Glo ATP luminescence, 72 h. Potency, µM (highest dose often 46.1 µM), for inactives: at the highest dose activity change, negative = cytotoxic, usual class: cytotoxic. 400,000 compounds, 1.4% hits. AID 1347075; note: potency is the fitted concentration of half-maximal effect; % is set by controls: 0 for no effect and ±100 for the full control effect; nearly all actives have a fitted effect of over 60% in size
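KB-3-1 cells, DMEM (no phenol red) + 10% FBS; compound by pin transfer, 72 h, 37 °C. Readout: CellTiter-Glo luminescence after 10 min. Data normalized, curve-fitted.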
DRD3 antagonist = antagonists of human D3 dopamine receptor; D3R cells, DiscoveRx beta-arrestin luminescence, antagonist mode; active compounds read low; 360,000 compounds, 2.5% hits; P35462; AID 652054; max response, negative = inhibition, %; in the data active = max response below about -50%; inconclusive = no clear call, values can overlap the other calls; note: % is set by controls: 0 for no effect and ±100 for the full control effect; mostly tested at two doses, the higher about 12 µM
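Cells expressing the human receptor were seeded at 1500 cells/well, incubated overnight at 37 degrees C in 5% CO2, then exposed to library compounds with dopamine controls for 90 minutes at 37 degrees C before luminescent detection.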
Numbers without * were called inactive; ? = inconclusive; & = joins results of further samples. Unless noted, calls come from the whole dose curve; as a rule, active = well fitted curve in the direction sought with a large enough effect; inconclusive = small, poorly fitted or top-dose-only effect, or another doubt; inactive = no such curve, though single readings can be large; an effect the other way counts as inactive or inconclusive. The list is partial, so the mix of outcomes need not match the whole.

No.	canonical_smiles	KB-V1 cytotox	DRD3 agonist	GLP1R ag
1	CC(C)(C)c1ccc(CSc2cnn(C(C)(C)C)c(=O)c2Cl)cc1	?	0.9	15.8%
2	Clc1ccc(C(Cl)(Cl)Cl)c(Cl)c1	4.9%	5.3	3.5%
3	c1ccc([C@@H]2CO2)cc1	15.3%	9.5	4.6%
4	CCOC(=O)c1cncn1[C@@H](C)c1ccccc1	-3.1%	19.9	18.4%
5	O=C1C=CC(=O)C=C1	13.3%&0.0%	6.0	21.9%
6	C[C@H]1CCC/C=C/[C@@H]2C[C@H](O)C[C@H]2[C@H](O)/C=C/C(=O)O1	0.581µM*	17.2&14.3	2.9%&-3.7%
7	O=c1[nH]cc(F)c(=O)[nH]1	-1.5%	1.2&-1.7	-0.1%&4.2%
8	CCC(=O)OC1CCC2C3CCC4CC(=O)C=CC4(C)C3CCC12C (stereo unspecified)	5.8µM*	5.7	12.1%
9	NC(=O)c1ncn([C@@H]2O[C@H](CO)[C@@H](O)[C@H]2O)n1	-1.8%	0.0&-11.4	-0.7%
10	Cc1cccc([N+](=O)[O-])c1	12.1%	8.6	-0.7%
11	COc1ccc2c(c1OC)C(=O)OC2C1c2cc3c(cc2CCN1C)OCO3 (stereo unspecified)	?	0.2	-1.8%
12	CC1CCC/C=C/C2CC(O)CC2C(O)/C=C/C(=O)O1 (stereo unspecified)	?	1.0	-3.2%
13	CCc1cccc(CC)c1N(COC)C(=O)CCl	?	3.6	-2.5%

No.	KB-3-1 cytotox	DRD3 antagonist
1	?	7.8
2	0.0%	33.2
3	0.0%	30.3
4	0.0%	16.4
5	0.0%&0.0%	1.9
6	0.0651µM*	6.8&-4.9
7	-0.5%	7.0
8	10.3µM*	-1.7
9	-6.6%	-9.5
10	0.0%	69.6
11	-4.0%	0.2
12	?	-8.0
13	?	0.6

Reformatted as labelled records: four of the compounds above.
#2 Clc1ccc(C(Cl)(Cl)Cl)c(Cl)c1
  KB-V1 cytotox: 4.9%; DRD3 agonist: 5.3; GLP1R ag: 3.5%; KB-3-1 cytotox: 0.0%; DRD3 antagonist: 33.2

#3 c1ccc([C@@H]2CO2)cc1
  KB-V1 cytotox: 15.3%; DRD3 agonist: 9.5; GLP1R ag: 4.6%; KB-3-1 cytotox: 0.0%; DRD3 antagonist: 30.3

#4 CCOC(=O)c1cncn1[C@@H](C)c1ccccc1
  KB-V1 cytotox: -3.1%; DRD3 agonist: 19.9; GLP1R ag: 18.4%; KB-3-1 cytotox: 0.0%; DRD3 antagonist: 16.4

#5 O=C1C=CC(=O)C=C1
  KB-V1 cytotox: 13.3%&0.0%; DRD3 agonist: 6.0; GLP1R ag: 21.9%; KB-3-1 cytotox: 0.0%&0.0%; DRD3 antagonist: 1.9

Single records, as listed above. Values in the order: KB-V1 cytotox	DRD3 agonist	GLP1R ag	KB-3-1 cytotox	DRD3 antagonist
CCc1cccc(CC)c1N(COC)C(=O)CCl in the list: ?	3.6	-2.5%	?	0.6
c1ccc([C@@H]2CO2)cc1 in the list: 15.3%	9.5	4.6%	0.0%	30.3
